Bfl-1 A1 inh: caspase 3/7 activation in MEF A1-2A-BIM cells, primary screen, A1 inhibitor project, cell-based, luminescence, HTS; Caspase-Glo 3/7 luminescence, 3 h; percent of clofoctol response, vehicle zero; caspase activation, % (concentration not given with the values); 0.066% of 330,000 active; AID 2462, 2010;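 active means over half of replicate activation scores above 10%, or exactly half above 10 with the replicate mean above 10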;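 further: wells of about 30 µL received 50 nL stock; many hits fall short of the cut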
Ecoli rRNA inh: reduced GFP signal of wild-type E. coli, primary screen, bacterial rRNA inhibitor project, GFP/RFP fluorescence, OD600, single point. E. coli WT GFP vs humanized-ribosome RFP mutants, 24 h; hits give low values; DMSO median 0, no signal -100. GFP signal change (wild-type ribosome), % (no concentration beside the values). 1.6% of 350,000 active. AID 720706, 2013;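 active means significant combined selectivity score with lowered wild-type GFP, culture density cut under 30%, mutant RFP and density less affected; inactive means any of these conditions unmet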; further: one replicate is shown; some compounds called inactive have numbers as strong as hits
Beta apoptosis: inhibitors of cytokine-induced beta cell apoptosis, primary screen, luminescence; INS-1E cytokine-induced death, ATP luminescence, 48 h; percent of positive-control rescue, neutral wells zero; 0.8% of 300,000 active; AID 435005, 2010; protection from apoptosis, % (test concentration not listed);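 active means all replicates at 75% or more, or half of them and the mean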;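 further: 0% = cytokine-treated negative control wells and 100% = positive control rescue; higher means more ATP so stronger rescue from cytokine killing; wells of about 40 µL received 100 nL stock; the first replicate is given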
FGF22 binding: binders of human FGF22 protein, primary screen, FGF22 synaptogenesis inhibitor project, biophysical, thermal shift, single point | Fibroblast growth factor 22 (Homo sapiens), Q9HCT0 | recombinant FGF22 thermal shift, SYPRO orange fluorescence; percent of sucrose octasulfate shift, DMSO zero | calls only at 9.99 µM | 1.5% of 340,000 active | AID 651658, 2012;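 active means melting point raised past a set limit in the mean and every replicate; three in four hits are not shown here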
Target sequence (Q9HCT0 whole entry, looked up): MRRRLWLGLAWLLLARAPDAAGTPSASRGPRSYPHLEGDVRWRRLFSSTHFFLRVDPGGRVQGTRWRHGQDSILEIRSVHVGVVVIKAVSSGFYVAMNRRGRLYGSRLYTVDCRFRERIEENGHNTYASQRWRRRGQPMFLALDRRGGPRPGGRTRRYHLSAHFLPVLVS
Ecoli growth: E. coli growth inhibition, primary screen, OD600 | OD600 absorbance (no concentration beside the values) | 0.21% of 330,000 active | Escherichia coli growth, 23 h; hits give low values;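 active means OD600 absorbance below the run mean of sample wells minus 3.6 SD, in any replicate, cut at about 0.56 in these data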;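 further: stock transfer was 300 nL into about 60 µL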
UCH37 inh: inhibitors of human UCH37 deubiquitinase, primary screen, biochemical, Ub-AMC cleavage, fluorescence. purified proteasome/UCH37. Ubiquitin carboxyl-terminal hydrolase isozyme L5 (Homo sapiens), Q9Y5K5. inhibition, % (concentration not given with the values). 0.33% of 330,000 active;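 active means mean of two replicates above 20%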;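 further: 0% = compound-free wells with enzyme and 100% = wells lacking proteasome; stock transfer was 100 nL into about 20 µL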
Target sequence (Q9Y5K5 whole entry, looked up): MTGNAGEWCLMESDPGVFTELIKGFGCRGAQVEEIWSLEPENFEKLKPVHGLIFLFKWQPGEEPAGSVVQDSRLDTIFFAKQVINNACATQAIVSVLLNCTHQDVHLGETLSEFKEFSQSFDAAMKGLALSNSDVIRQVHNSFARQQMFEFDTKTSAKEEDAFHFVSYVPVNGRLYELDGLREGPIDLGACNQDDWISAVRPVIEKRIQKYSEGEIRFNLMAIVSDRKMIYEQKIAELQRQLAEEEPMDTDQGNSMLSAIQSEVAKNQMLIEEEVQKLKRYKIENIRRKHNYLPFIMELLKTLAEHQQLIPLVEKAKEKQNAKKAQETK
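Material: Human UCH37 enzyme supplied as purified proteasome complex | Schedule: 30 min preincubation with enzyme, 25 min cleavage at room temperature | Detection: AMC fluorescence 355/460 nm | Measure: % inhibition of Ub-AMC cleavage fluorescence | Controls: Wells without proteasome as full block, compound-free enzyme plus substrate as uninhibited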
T cruzi repl: inhibitors of intracellular T. cruzi growth, primary screen, luminescence, NIH3T3 host cells; T. cruzi beta-gal in NIH3T3, 90 h; inhibition, % (no concentration beside the values); 1.4% of 300,000 active; AID 1885, 2009;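 active means mean inhibition across valid replicates above about 55%, limit read from the data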;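 further: signal also drops with host cell toxicity which is not excluded here; 0% = plate median of DMSO wells and 100% = zero luminescence signal; higher percent means less beta-gal luminescence so fewer parasites; stock transfer was 50 nL into about 50 µL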
AF4-AF9 inh: inhibitors of AF4 peptide binding to AF9, primary screen, biochemical, AlphaScreen, biotin-AF4 peptide, FLAG-AF9, single point; 0.47% of 350,000 active; inhibition, % at 10 µM; AID 651704, 2012;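 active means every replicate reaching a set inhibition limit, whatever the replicate mean, cut at about 25% in these data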;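 further: 0% = plate neutral control median and 100% = total signal loss; the record names both 10 and 1 µM as test concentration; the first replicate is given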
Target sequence (P42568 whole entry, looked up): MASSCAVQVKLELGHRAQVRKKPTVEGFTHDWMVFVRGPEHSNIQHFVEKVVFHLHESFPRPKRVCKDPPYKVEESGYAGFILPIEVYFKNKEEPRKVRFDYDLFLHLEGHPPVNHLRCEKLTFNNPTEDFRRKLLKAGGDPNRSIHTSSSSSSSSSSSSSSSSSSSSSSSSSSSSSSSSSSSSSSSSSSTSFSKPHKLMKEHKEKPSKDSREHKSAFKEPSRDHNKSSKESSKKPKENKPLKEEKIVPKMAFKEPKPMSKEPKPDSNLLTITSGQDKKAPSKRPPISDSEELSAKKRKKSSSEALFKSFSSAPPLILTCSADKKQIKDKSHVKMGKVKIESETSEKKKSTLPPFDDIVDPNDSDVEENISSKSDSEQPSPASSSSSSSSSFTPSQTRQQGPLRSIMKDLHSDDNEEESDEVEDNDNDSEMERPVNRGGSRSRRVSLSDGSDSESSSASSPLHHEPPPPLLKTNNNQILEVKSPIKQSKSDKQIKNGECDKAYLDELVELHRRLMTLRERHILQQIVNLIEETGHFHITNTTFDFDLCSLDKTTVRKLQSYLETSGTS
Ecoli rRNA inh OD600: also measured in Ecoli rRNA inh; calls as there; OD600 change, %; measured here: OD600 growth;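 optical density of the mix in the first replicate; 0 = DMSO median and -100 = no signal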
Ecoli rRNA inh RFP: further read-out of Ecoli rRNA inh, marked with its call; RFP signal change, %; measured here: RFP humanized mutant strains;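 first replicate; 0 = DMSO median and -100 = no signal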
Starred values were filed as active, the others as inactive; i = inactive; / = no result given; & = joins results of further samples.

SMILES | Bfl-1 A1 inh | Ecoli rRNA inh | Ecoli rRNA inh OD600 | Ecoli rRNA inh RFP | Beta apoptosis | FGF22 binding | Ecoli growth | UCH37 inh | T cruzi repl | AF4-AF9 inh
Cc1nn(CCCC(=O)Nc2cccnc2)c(C)c1[N+](=O)[O-] | 0.1 | -0.8 | -4.8 | -1.7 | -7.1 | i | 0.659 | -1.2 | -8.1 | 7.0
CCCCN1C(=O)N(C)C2NC(=O)NC21 (stereo not given) | 0.0 | / | / | / | -0.2 | / | 0.714 | 2.1 | 1.2 | /
CN(C)c1ccc(C(=S)N2CCN(C(=S)Nc3ccc(Cl)cc3)CC2)cc1 | 0.1 | 5.1 | 1.4 | 0.3 | -3.1 | i | 0.657 | 5.6 | -9.5 | -2.1
Cc1cccc(N(C)S(=O)(=O)c2ccc3[nH]cc(C(=O)N4CCOCC4)c(=O)c3c2)c1 | -0.2 | / | / | / | / | / | 0.806 | -7.2 | -7.2 | /
NC(=O)CC(NSc1ccccc1[N+](=O)[O-])C(=O)O (stereo not given) | 0.2 | 3.6 | 1.2 | 1.8 | -37.1 | i | 0.757 | 7.7 | 5.4 | -4.4
Cc1ccc(Cn2c(CCCO)nc3ccccc32)cc1 | 0.2 | -10.5 | -14.8 | -1.9 | 3.4 | i | 0.654 | 0.7 | 0.8 | 2.4
CC(=O)c1ccc(N2CCN(C(=O)c3ccc(NC4=NC5CS(=O)(=O)CC5S4)cc3)CC2)cc1 (stereo not given) | / | 2.2 | 20.9 | -0.6 | -2.6 | i | 0.804 | 5.9 | -4.8 | 0.4
Cn1c(NC(=O)c2ccccc2)cc(=O)n(C)c1=O | / | 1.4 | 1.0 | -1.4 | / | i | 0.77 | 2.6 | -14.4 | 2.4
CCN(CC)c1ccc(NC(=O)c2cccc(OC)c2)c(C)c1 | -5.9 | / | / | / | 3.9 | / | 0.72 | 3.7 | 3.2 | /
Cc1cccc(NC(=O)CN(C)C(=O)C2CCCC2)c1C | 0.1 | 3.6 | 1.6 | -2.6 | 9.7 | i | 0.651 | 3.4 | / | 2.2
CC(=O)Nc1ccc(C(=O)N/N=C/c2ccccc2OCc2ccccc2)cc1 | 0.5 | -5.8 | -6.0 | 5.8 | 5.1 | i | / | / | -8.2 | 3.4
CC(NC(=O)C1CCN(S(=O)(=O)c2ccc3c(c2)NC(=O)CO3)CC1)c1ccccc1 (stereo not given) | -0.5 | 7.7 | 4.0 | -0.7 | -6.3 | i | 0.696 | 4.1 | -10.3 | -2.8
CSc1cc(C)n(-c2ccc(Cl)cc2)c(=S)c1C(C)=O | -0.7 | / | / | / | 3.2 | / | 0.669 | 5.6 | -6.6 | /
CCOC(=O)C1CCCN(C(=O)c2cc(=O)c3ccccc3o2)C1 (stereo not given) | 0.3 | / | / | / | -7.2 | / | 0.712 | 1.5 | -5.4 | /
C[C@@H]1CN([C@H](C)CO)C(=O)Cc2cc(NC(=O)Cn3cnnn3)ccc2O[C@@H]1CN(C)Cc1ccc(Cl)c(Cl)c1 | 0.2 | -0.5&-39.5 | -21.4&-60.1 | 3.6&10.5 | 1.9 | i | 0.719 | 3.1 | / | 3.6&2.3
Cc1cc(C)c2oc(C(=O)N(Cc3cccs3)C3CCS(=O)(=O)C3)cc(=O)c2c1 (stereo not given) | 0.0 | -16.9 | -13.6 | -0.3 | 5.7 | i | 0.67 | 0.2 | -12.9 | -2.4
COc1cccc(C(=O)NCC(=O)OCC(=O)Nc2ncc(Cl)cc2Cl)c1 | -0.2 | 3.4 | 11.7 | 0.5 | -1.4 | / | 0.737 | -0.2 | -26.4 | -5.7
Cc1cccc(OCC(=O)Nc2ccccc2N2CCN(C(=O)C(C)C)CC2)c1C | -0.4 | / | / | / | -6.6 | / | 0.715 | 0.8 | 6.5 | /
COc1ccc(NC(=O)C2(c3ccc(NC(=O)c4ccc(OC)c(OC)c4)cc3)CCCC2)cc1 | -0.2 | / | / | / | -1.5 | / | 0.738 | -8.4 | -17.6 | /
Cc1c2cccn2cc[n+]1C | -1.3 | / | / | / | -2.5 | / | 0.633 | -153.8 | -5.0 | /
O=C(Nc1ccccc1C(=O)N1CCOCC1)c1ccc(CSc2ccccc2)cc1 | 1.6 | -28.8 | -50.8 | -10.5 | 4.8 | i | 0.663 | 1.8 | 4.9 | 0.5
Cc1cc(C)c(S(=O)(=O)c2ccc(Cl)cc2)c(Cl)n1 | -0.3 | -19.9 | -25.9 | -7.8 | 2.2 | i | 0.693 | 1.8 | 7.6 | 0.4
CCC(CC)c1nnc(NC(=O)c2ccc(S(=O)(=O)N3CCc4ccccc4C3)cc2)s1 | 0.9 | 6.1 | 4.2 | 6.9 | 5.2 | i | 0.704 | -1.9 | 8.6 | -0.2
O=C(NCCO)C(=O)NCC1OCCCN1S(=O)(=O)c1ccc2c(c1)OCCO2 (stereo not given) | -0.2 | 3.1 | 6.6 | -1.0 | -4.9 | i | 0.695 | 1.2 | -3.1 | -1.6
COc1ccc(C(=O)/C=C/c2ccccc2C(F)(F)F)cc1 | -0.2 | / | / | / | 12.6 | / | 0.692 | 0.8 | -11.3 | /
CC(OC(=O)CC(C)c1ccccc1)C(=O)Nc1ccc(Cl)cn1 (stereo not given) | / | -5.7 | -19.6 | -0.7 | / | i | 0.68 | 0.6 | / | -2.0
CC(C)NC(=O)/C=C/C(=O)O | -0.9 | 10.1 | 11.0 | -1.2 | -5.2 | i | 0.7 | -0.4 | -11.5 | -1.8
Cc1ccc(NC(=O)c2cc(NC(=O)/C=C\C(=O)O)ccc2N2CCCCC2)cc1 | -0.5 | -53.6 | -81.7 | -18.1 | -6.2 | i | 0.694 | 1.5 | -1.0 | -11.4
COc1ccc(N2C(=O)CC(NCC#N)C2=O)cc1 (stereo not given) | -0.8 | 13.1 | 10.5 | -4.8 | -4.6 | i | 0.681 | -0.2 | -2.5 | -2.3
CCOC(=O)c1c(NC2OC(=O)c3c2ccc(OC)c3OC)sc(C(=O)OC(C)(C)C)c1C (stereo not given) | 0.3 | / | / | / | 5.3 | / | 0.678 | 4.0 | -3.1 | /
CCOc1ccc(/C=N/NC(=S)NC2CC3C=CC2C3)cc1 (stereo not given) | 0.1 | / | / | / | -4.2 | i | / | / | 6.3 | 1.2
Cc1ccnc(NC(=O)c2cccc(S(=O)(=O)N3CCOCC3)c2)c1 | -0.4 | 2.6 | 2.7 | -1.5 | / | i | 0.66 | -1.7 | 3.2 | 0.2
Cc1csc(=O)n1CCC(=O)OCc1nnc(-c2ccc(Cl)cc2)o1 | / | 0.2 | 0.9 | -1.4 | / | i | 0.639 | 2.0 | / | 2.4
CCN(CC(=O)NCc1cccs1)C(=O)c1ccc(S(=O)(=O)Nc2ccccc2)cc1 | 0.3 | -2.5 | -10.5 | 2.8 | -1.8 | i | 0.688 | 1.5 | 0.5 | -22.0
CCCCOc1ccc(CNC(=O)NS(=O)(=O)c2ccc(OCC(C)C)cc2)cc1 | 1.1 | / | / | / | -2.8 | / | 0.67 | 0.5 | 12.7 | /
COc1ccc(/C=N/NC(=O)c2c(C)nc3ccc(Cl)cn23)cc1OC | -0.2 | 7.2 | 15.4 | -0.1 | -6.1 | i | / | / | -16.6 | -1.5
O=C(CN1C2CCCC1CC(NC(=O)c1ccccc1)C2)Nc1nccs1 (stereo not given) | -0.3 | / | / | / | 3.7 | / | 0.692 | 2.1 | 1.7 | /
O=C(CSc1nc(O)c(Cc2ccccc2)c(=O)[nH]1)Nc1nc2c(s1)CCCC2 | -0.6 | 12.4 | 9.3 | -0.3 | -1.4 | i | 0.65 | 7.1 | -13.5 | -2.9
CCN1CCC(=NNC(=O)CC23CC4CC(CC(C4)C2)C3)CC1 | -0.6 | / | / | / | -0.4 | / | 0.728 | 3.6 | -14.9 | /
CC(CCc1ccccc1)NS(=O)(=O)c1ccc(Cl)c(C(=O)O)c1 (stereo not given) | -0.1 | 2.2 | 25.4 | -0.2 | -8.8 | i | 0.651 | 5.6 | -6.6 | 1.5
Oc1ccc(/C(Cc2ccc3ccccc3n2)=N\Nc2ccccc2)c(O)c1 | -0.2 | -17.9 | -23.8 | 1.6 | -8.3 | i | / | / | -10.1 | 14.9
C[C@H](NC(=O)c1ccccc1)C(=O)OCC(=O)Nc1ccc2c(c1)OCO2 | -0.6 | / | / | / | 0.7 | i | / | / | / | -4.0
COc1cc(SC)ccc1C(=O)OCC(=O)NC1CCCCC1 | 0.1 | 8.9 | 0.5 | -3.7 | -3.2 | i | 0.69 | 4.8 | 4.0 | -1.6
CN(CCc1ccccc1)C(=O)c1ccc(NC(=O)Cc2ccc(NC(=O)C3CCN(C(=O)C4CCC4)CC3)cc2)cc1 | / | -6.1 | 3.4 | -4.4 | / | / | 0.693 | 4.6 | / | 28.2*
O=C(/C=C/c1ccccc1)OCCN=C1NS(=O)(=O)c2ccccc21 | -0.3 | -27.2 | -24.5 | -0.3 | -8.1 | i | 0.661 | 4.0 | -2.2 | 1.0
Cc1nc(S(=O)(=O)N(C)Cc2ccccc2)c(C#N)c(C)c1Cl | 0.2 | 3.0 | 11.5 | -10.6 | 6.5 | / | 0.691 | 0.7 | -5.3 | /
CCOCCCNC(=O)CCN1C(=O)c2ccccc2Sc2ncccc21 | 0.8 | 10.9 | 11.9 | 1.5 | -7.9 | i | 0.673 | -1.3 | -4.8 | -1.6
COc1cccc(C(=O)OCc2cc(=O)oc3c(C)c(C)ccc23)c1OC | -0.5 | 1.5 | 8.8 | -1.2 | -1.3 | i | 0.694 | -3.9 | 16.2 | -15.8
O=C(NCCN1CCOCC1)c1ccc2c(c1)N(Cc1ccccc1)CCS2 | -0.9 | -7.9 | -9.6 | -3.1 | 4.6 | i | 0.719 | -471.3 | -12.8 | 3.6
Cc1ccccc1-c1nc(CS(=O)(=O)CC(=O)NCCc2ccccc2)c(C)o1 | 0.5 | -19.8 | -26.7 | 6.8 | -0.8 | i | 0.674 | 3.1 | 7.8 | -2.0

Three neighbouring entries out of the list so far, quoted:
SMILES | Bfl-1 A1 inh | Ecoli rRNA inh | Ecoli rRNA inh OD600 | Ecoli rRNA inh RFP | Beta apoptosis | FGF22 binding | Ecoli growth | UCH37 inh | T cruzi repl | AF4-AF9 inh
COc1cccc(C(=O)OCc2cc(=O)oc3c(C)c(C)ccc23)c1OC | -0.5 | 1.5 | 8.8 | -1.2 | -1.3 | i | 0.694 | -3.9 | 16.2 | -15.8
O=C(NCCN1CCOCC1)c1ccc2c(c1)N(Cc1ccccc1)CCS2 | -0.9 | -7.9 | -9.6 | -3.1 | 4.6 | i | 0.719 | -471.3 | -12.8 | 3.6
Cc1ccccc1-c1nc(CS(=O)(=O)CC(=O)NCCc2ccccc2)c(C)o1 | 0.5 | -19.8 | -26.7 | 6.8 | -0.8 | i | 0.674 | 3.1 | 7.8 | -2.0

Some of the compounds tested; count on the stated rates, not on these rows.
